Screening results (PubChem BioAssay)
CtBP-E1A blk: blocks the CtBP interaction with E1A | AlphaScreen GST-E1A/His-CtBP binding, 1536-well; active compounds read low; control for the full effect not named in the record | activity change, % (no concentration beside the values) | actives 0.49% (n = 340,000) | AID 651724; in the data active means activity change below about -65%; inconclusive means about -30% to -65%; inactive means above about -30%; also: % is scaled to controls: 0 for no effect and ±100 for the full control effect
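GST-E1A and His-tagged CtBP (125 nM each as 5X stock) were preincubated with pin-transferred compound for 2 h at 37 °C in the dark, then glutathione donor and nickel acceptor beads were added for 1 h before AlphaScreen reading.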
TRPML1 blocker: inhibitors of human TRPML1 channel; AID 624415; actives 0.02% (n = 390,000); Q9GZU1; activity change, negative = inhibition, % (test concentration not listed); TRPML1-inducible cells, Ca2+ dye fluorescence, FDSS; active compounds read low; inhibition of EC80 agonist-evoked calcium signal; in the data active means activity change below about -50%; inconclusive means about -30% to -50%; inactive means above about -30%;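 also: stimulus is agonist 54-4 at its EC80 concentration; % is scaled to controls: 0 for no effect and ±100 for the full control effect; compound concentration not given in the record; the text of the record puts the active cut at -80%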
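TRPML1-DL cells, Tet-induced overnight (~16 h, 37 °C) at 1,500 cells/well, were loaded with Ca8 no-wash dye plus quencher for 45-90 min at room temperature. Compounds were pinned during FDSS kinetic reading; agonist 54-4 at EC80 (4 uM final) then added.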
D2 PAM: human D2 receptor positive allosteric modulation; DiscoveRx D2 beta-arrestin cells, luminescence, 90 min; 100% = 57 uM dopamine signal; potentiation, % (no concentration beside the values); P14416; actives 0.23% (n = 360,000); active = potentiation of 50% or more; inconclusive = 30% to 50%; inactive = 30% or less;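 also: compound concentration not given in the record; tested on top of an EC20 dose of dopamine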
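PathHunter D2 cells, attached overnight at 37 deg C, received compound in DMSO plus dopamine at EC20 (50 nM final) for 90 min at 37 deg C. Beta-arrestin recruitment was read as luminescence after 1 h with detection reagent at ambient temperature.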
TRPV1 potentiator: enhances activation of the human vanilloid receptor TRPV1; Q8NER1; TRPV1-expressing cells, Fluo-8 calcium influx, capsaicin EC20 potentiation; host cell line not named in the record; control for the full effect not named in the record; potentiation, % at 8.33 µM; actives 0.02% (n = 320,000); AID 540277; active means potentiation above 80%; inconclusive means 30% to 80%; inactive means below 30%; also: 0% is about no effect
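Fluo-8 calcium influx in TRPV1-expressing cells, kinetic read (ex 480/em 520 nm). Compound added and read 3 min for agonist activity, followed by capsaicin at EC20 final and 2 min further read for enhancement.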
TRPML1 ag: human mucolipin-1 channel agonism; AID 624414; TRPML1-expressing cells, Ca2+ dye fluorescence, FDSS; host cell line not named in the record; reference of the full effect not given here; Q9GZU1; actives 0.12% (n = 410,000); activation, % (no concentration beside the values); in the data active = activation above about 50%; inconclusive = about 30% to 50%; inactive = below about 30%; also: 0% is about no effect; the text of the record puts the active cut at 80%
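Calcium fluorescence on an FDSS kinetic reader gave the read-out. Tet-induced TRPML1-DL cells were plated overnight, dye-loaded (Ca8 with quencher, 45-90 min, room temperature, dark), then read 110 s after compound addition, and again 110 s after 4uM final 54-4 (EC80).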
Six1-Eya2 blk: blocks human Six1 binding to Eya2; Q15475+O00167; AlphaScreen GST-Six1/His-Eya2 binding, biochemical; active compounds read low; control for the full effect not named in the record; activity change, % (concentration not given with the values); actives 0.56% (n = 360,000); in the data active = activity change below about -65%; inconclusive = about -30% to -65%; inactive = above about -30%; also: % is scaled to controls: 0 for no effect and ±100 for the full control effect
Target sequence (O00167 whole entry, looked up): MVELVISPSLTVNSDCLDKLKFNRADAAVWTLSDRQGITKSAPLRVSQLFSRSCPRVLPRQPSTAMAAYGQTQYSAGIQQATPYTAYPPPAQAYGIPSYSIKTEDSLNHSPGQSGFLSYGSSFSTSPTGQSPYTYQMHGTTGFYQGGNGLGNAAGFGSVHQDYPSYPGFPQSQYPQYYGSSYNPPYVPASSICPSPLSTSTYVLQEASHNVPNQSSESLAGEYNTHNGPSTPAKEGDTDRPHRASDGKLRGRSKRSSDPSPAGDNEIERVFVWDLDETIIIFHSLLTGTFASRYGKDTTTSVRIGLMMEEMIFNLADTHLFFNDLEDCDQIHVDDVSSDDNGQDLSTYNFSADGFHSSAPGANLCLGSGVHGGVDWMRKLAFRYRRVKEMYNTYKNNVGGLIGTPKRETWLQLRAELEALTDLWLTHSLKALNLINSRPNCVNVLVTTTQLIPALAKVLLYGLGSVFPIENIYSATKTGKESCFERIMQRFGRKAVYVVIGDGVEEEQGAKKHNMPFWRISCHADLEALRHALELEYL
Target sequence (Q15475 whole entry, looked up): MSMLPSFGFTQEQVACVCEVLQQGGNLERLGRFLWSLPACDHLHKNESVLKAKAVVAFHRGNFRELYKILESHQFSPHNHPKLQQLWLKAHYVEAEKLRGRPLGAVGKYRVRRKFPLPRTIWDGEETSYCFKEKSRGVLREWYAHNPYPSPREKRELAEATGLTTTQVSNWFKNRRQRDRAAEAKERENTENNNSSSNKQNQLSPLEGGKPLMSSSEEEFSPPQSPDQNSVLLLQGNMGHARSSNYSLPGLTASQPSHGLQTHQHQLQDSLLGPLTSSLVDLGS
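AlphaScreen with GST-Six1 and His-Eya2 (5X mix: 250 nM and 500 nM), glutathione donor and nickel acceptor beads; buffer 50 mM Tris pH 8.0, 300 mM NaCl, 1 mM TCEP; 1 h at 37 C in the dark.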
Starred values were filed as active, the others as inactive; ? = inconclusive; · = no result given.

SMILES	CtBP-E1A blk	TRPML1 blocker	D2 PAM	TRPV1 potentiator	TRPML1 ag	Six1-Eya2 blk
Cc1cccc(COc2ccccc2C(=O)OCC(=O)N(C)c2c(N)n(Cc3ccccc3)c(=O)[nH]c2=O)c1	1	-16	-12	-1	0.2	-2
Cc1ccc(S(=O)(=O)NNC(=O)Nc2ccc([N+](=O)[O-])cc2)c(C)c1	3	8	-32	0	0.4	-1
COC(=O)/C(=C1\Oc2ccc(C(C)(C)C)cc2S1)C(F)(F)F	-5	-16	4	-18	-0.4	-1
O=C(NC1CC1)c1nc(Cn2ccc([N+](=O)[O-])n2)no1	6	-11	-1	27	-0.1	10
O=C(O)CNC(=O)/C(=C\c1cccc([N+](=O)[O-])c1)NC(=O)c1ccco1	5	9	-4	0	0.7	4
O=C(CSc1ccc2nnc(-c3cccnc3)n2n1)NCc1ccc2c(c1)OCO2	-2	-9	-5	?	-0.1	-2
O=C(NCc1ccco1)c1[nH]c(C(F)(F)F)nc1-c1ccccc1	-4	-17	1	·	-0.2	-28
CC(=O)Nc1ccc(NC(=O)Cc2ccc(-c3ccccc3)cc2)cc1	·	20	-9	3	-0.4	7
COc1ccc(CCNCC(=O)Nc2ccccc2C(F)(F)F)cc1	·	-10	-7	14	1.1	3
C[C@@H](CO)NC(=O)[C@H]1O[C@@H](n2ccc(=O)[nH]c2=O)[C@H](O)[C@@H]1O	1	·	-5	·	-0.4	-3
Cc1ccc(NC(=O)NC2OC(=O)c3ccccc32)cc1 (centres undefined)	4	13	1	·	0.1	7
Cc1c(NC(=O)c2nn(C(C)C)c(=O)c3ccccc23)c(=O)n(-c2ccccc2)n1C	4	-16	-6	·	-0.3	6
O=C(CSc1nc2c(cnn2-c2ccc(F)cc2)c(=O)[nH]1)N1CCCCC1	5	3	2	2	-1.0	2
CCOC(=O)c1c(NC(=O)Cc2cccs2)sc(C(=O)NC2CCCCC2)c1C	0	-6	-18	-5	-0.9	-1
CCOC(=O)N1CCC(Nc2c(NCCCN(CC)c3cccc(C)c3)c(=O)c2=O)CC1	-27	38	-8	5	0.3	-17

Part of the list above in order of length of the SMILES, descending:
SMILES	CtBP-E1A blk	TRPML1 blocker	D2 PAM	TRPV1 potentiator	TRPML1 ag	Six1-Eya2 blk
O=C(O)CNC(=O)/C(=C\c1cccc([N+](=O)[O-])c1)NC(=O)c1ccco1	5	9	-4	0	0.7	4
Cc1ccc(S(=O)(=O)NNC(=O)Nc2ccc([N+](=O)[O-])cc2)c(C)c1	3	8	-32	0	0.4	-1
O=C(CSc1ccc2nnc(-c3cccnc3)n2n1)NCc1ccc2c(c1)OCO2	-2	-9	-5	?	-0.1	-2
O=C(NCc1ccco1)c1[nH]c(C(F)(F)F)nc1-c1ccccc1	-4	-17	1	·	-0.2	-28
COc1ccc(CCNCC(=O)Nc2ccccc2C(F)(F)F)cc1	·	-10	-7	14	1.1	3
Cc1ccc(NC(=O)NC2OC(=O)c3ccccc32)cc1 (centres undefined)	4	13	1	·	0.1	7

The listing picks up with the two entries that preceded the break.
SMILES	CtBP-E1A blk	TRPML1 blocker	D2 PAM	TRPV1 potentiator	TRPML1 ag	Six1-Eya2 blk
CCOC(=O)c1c(NC(=O)Cc2cccs2)sc(C(=O)NC2CCCCC2)c1C	0	-6	-18	-5	-0.9	-1
CCOC(=O)N1CCC(Nc2c(NCCCN(CC)c3cccc(C)c3)c(=O)c2=O)CC1	-27	38	-8	5	0.3	-17
O=C(NCc1ccc(F)cc1)C1CCCN(C(=O)Nc2ccc(F)cc2)C1 (centres undefined)	0	11	-9	-15	0.3	6
CN(C)c1ccc(C=Cc2cnccn2)cc1	19	-6	-3	·	2.3	9
CCc1nc2ccc(C(=O)NCCOc3ccc(OC)cc3)cn2c1N(C=O)Cc1ccc(OC)cc1	-9	·	-7	·	-0.9	-2
O=C(NCCCN1CCCC1)c1ccc2c(c1)N(Cc1ccccc1F)C(=O)c1ccccc1S2=O (centres undefined)	-5	-14	-27	13	-0.3	-1
Cc1ccccc1C(=O)NNC(=O)CCCCC(=O)NNC(=O)c1ccccc1C	6	23	-6	·	0.5	16
O=C(CCS(=O)(=O)Cc1ccccc1)NCCc1ccccc1	-6	-5	-7	0	-0.6	9
Cc1cc(S(=O)(=O)NC2CCCCC2)c(C)s1	-7	7	1	13	2.1	10
Cc1nnc(SCc2cccc3ccccc23)s1	3	-6	-1	-4	0.3	4
CCc1ccccc1Nc1nc2ccccc2[nH]1	·	36	-22	·	-1.1	0
COC(=O)[C@H](Cc1ccccc1)NC(=O)NCCc1ccc(S(N)(=O)=O)cc1	3	11	7	1	0.1	9

Of the compounds above, two contain an aryl methoxy group:
SMILES	CtBP-E1A blk	TRPML1 blocker	D2 PAM	TRPV1 potentiator	TRPML1 ag	Six1-Eya2 blk
COc1ccc(CCNCC(=O)Nc2ccccc2C(F)(F)F)cc1	·	-10	-7	14	1.1	3
CCc1nc2ccc(C(=O)NCCOc3ccc(OC)cc3)cn2c1N(C=O)Cc1ccc(OC)cc1	-9	·	-7	·	-0.9	-2
